From PubChem BioAssay
HPGD block: inhibitors of human 15-hydroxyprostaglandin dehydrogenase (HPGD); purified HPGD, NADH fluorescence kinetic, PGE2 substrate; P15428; 150,000 compounds, 4.3% hits; Potency, µM, for the others: at the highest dose activity change, negative = inhibition, usual class: inhibitors; active = well fitted inhibition curve with a large enough effect (not every such curve was filed as active); inconclusive = small, poorly fitted or top-dose-only effect, or another doubt; inactive = no such curve, though single readings can be large or run the other way;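 further: top concentration of the series not given in the record; plate controls included wells without enzyme; inactives centre near -10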
Target sequence (P15428 whole entry, looked up): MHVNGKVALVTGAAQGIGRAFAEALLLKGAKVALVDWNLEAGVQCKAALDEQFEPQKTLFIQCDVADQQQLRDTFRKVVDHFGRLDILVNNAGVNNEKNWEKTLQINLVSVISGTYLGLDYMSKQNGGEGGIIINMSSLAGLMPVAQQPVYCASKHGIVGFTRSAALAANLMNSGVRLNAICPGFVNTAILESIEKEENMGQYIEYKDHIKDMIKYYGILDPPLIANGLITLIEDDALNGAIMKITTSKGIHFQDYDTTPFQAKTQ
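20 nM HPGD preincubated 15 min at room temperature with compound in 50 mM Tris-HCl pH 8, 0.01% Tween 20. Started with 1 mM NAD+ and 30 uM prostaglandin E2; NADH fluorescence (360/450 nm) read 5 times over 30-s intervals, last minus first.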
* hit, by the source's call; ? = inconclusive; & = joins results of further samples. On the % scale 0 is the no-effect control and ±100 the full control effect; potency means the concentration at half of the fitted maximal effect.

SMILES	HPGD block
O=C(O)C1CC2(C1)CC(C(=O)O)C2 (stereo not given)	-5%
O=C(O)CCCN=C1NC2(CCCC2)Cc2ccccc21	3%
O=C1c2cccc3c([N+](=O)[O-])ccc(c23)C(=O)N1c1ccc(Cl)cn1	-21%
O=C(CSc1ncc(C(F)(F)F)cc1Cl)N1CCN(S(=O)(=O)c2ccc(Cl)cc2)CC1	-24%
N#C/C(=C\c1ccccc1)c1nc2ncccc2[nH]1	-13%
CC(=O)c1cc(-c2ccc(F)cc2)n(CCC(=O)Nc2cc(C)[nH]n2)c1C	0%
S=c1[nH]nc(-c2cnccn2)n1-c1ccccc1	-26%
CCOc1cc(CNCCO)cc(Br)c1OCc1ccccc1Cl	-11%
CCC(=O)N(Cc1cc2cc(OC)ccc2[nH]c1=O)c1cc(C)ccc1C	?
C/C(=N/NC(=O)CSCc1ccc(Cl)cc1)c1cccc(NC(=O)c2ccccc2)c1	-16%
CC(C)(C)c1ccc(S(=O)(=O)N2CCCCC2)cc1	-10%
Cc1ccnn1CC(=O)N/N=C/c1ccc2c(c1)OCO2	-20%
[O-][n+]1onc2c1CCc1c-2nc(-c2ccccc2)n1OCc1ccccc1	-3%
COc1cc(NC(=O)c2cccs2)c(C(=O)OCC(=O)NC(=O)NCc2ccccc2)cc1OC	?
COc1cccc(CC(NC(C)=O)C(=O)NC2CCN(S(=O)(=O)c3cccc4ccccc34)CC2)c1 (stereo not given)	-1%
C=CCn1c(CC(=O)Nc2cccc(OC)c2)nnc1SCC(=O)NC1CCCCC1	-4%
CCc1cccc(CC)c1NC(=S)NCCc1c(C)[nH]c2ccc(C)cc12	-11%
O=C(COc1ccc(-c2ccccc2)cc1)N1CCN(C(=O)c2cccnc2)CC1	0%
O=CN1CCN(C(=O)CN2C(=O)c3ccccc3C2=O)CC1	-2%
COc1ccc2cc(CN(CCO)C(=O)c3ccccc3F)c(=O)[nH]c2c1	-12%
O=c1oc(-c2ccco2)nc2ccccc12	?
CCOC(=O)c1cccc(NC(=O)CCn2cccc2)c1	-3%
CCOC(=O)Cn1nnc(-c2ccc(S(C)(=O)=O)cc2)n1	-7%
Cc1cc(-c2nnc(SCC(=O)N3C(C)CCCC3C)o2)no1 (stereo not given)	-16%
CCOC(=O)Cn1nnnc1CN(CCc1ccccc1)Cc1cc2cc(CC)ccc2[nH]c1=O	-5%

Two compounds drawn at random from those above:
SMILES	HPGD block
COc1cc(NC(=O)c2cccs2)c(C(=O)OCC(=O)NC(=O)NCc2ccccc2)cc1OC	?
Cc1ccnn1CC(=O)N/N=C/c1ccc2c(c1)OCO2	-20%

More structures
SMILES	HPGD block
CCC(=O)Nc1ccc(Oc2ccc3c(c2)C(=O)N(c2ccc(O)cc2)C3=O)cc1	-11%
CN(CC(CC(=O)O)c1ccccc1)S(=O)(=O)c1ccc(Br)cc1 (stereo not given)	-6%
Cc1cc(N2C(=O)CC(N3CCN(c4ccc(C(=O)c5cccs5)cc4)CC3)C2=O)no1 (stereo not given)	-27%
C[C@@H]1NC(=O)[C@H](CCCN=C(N)N)NC(=O)c2cc([N+](=O)[O-])cc(I)c2OCC[C@@H](C(N)=O)NC1=O	-15%
COC(=O)CC1C2(C)CC34OC5(C)O[C@@]6(C7/C(=C(/OC)C(C)C)C(=O)OC(c8ccoc8)[C@@]7(C)C(OC(=O)C(C)C)C(OC)[C@]6(O5)[C@@]13C)C(OC)[C@]4(OC)C2OC(C)=O (stereo not given in full)	-9%
Cc1nn(-c2ccccc2)c2[nH]c(=O)c(CNCC3CCCO3)cc12 (stereo not given)	-19%
O=C(Nc1nncs1)C1(c2ccccc2)CCCC1	-1%
Cc1ccc(Cl)cc1N1CCN(C(=O)c2cc3c(=O)[nH]c4ccccc4c3n2C)CC1	?
O=c1[nH]c2cc3c(cc2cc1C(c1nnnn1Cc1ccccc1)N1CCCCCC1)OCCO3 (stereo not given)	-20%
CCN1C(=O)/C(=C\N2CCN(c3cccc(Cl)c3)CC2)SC1=S	1%
Nc1nc(Cl)cc(Sc2ccc(F)cc2)n1	-16%
O=C(Nc1ccccc1Oc1ccccc1)c1ccc(Br)o1	-10%
Cc1cc(C(=O)N[C@@H](c2ccccc2)[C@]2(C)C[C@H]2[C@@H](C)C(=O)Nc2ccc3ccccc3c2)no1	-20%&-13%
Cc1ccc(C(=O)Nc2cccc(C(=O)N3CCN(C)CC3)c2)cc1	-22%
O=[N+]([O-])c1ccc2nc(-c3ccccc3)cc(-c3ccccc3)c2c1	-3%
O=C(CNC(=O)c1ccc(S(=O)(=O)N2CCCC2)cc1)N/N=C/c1c(Cl)cccc1Cl	-16%
O=C(O)CCc1ccc(-c2ccc(Cl)cc2)n1Cc1ccco1	-18%
Cc1ccccc1N=C/C=C1\N(C)c2ccccc2C1(C)C	-16%
COc1ccc(OC)c(NC(=O)Cn2cc(C(=O)c3ccco3)c3ccccc32)c1	-7%
C=CCNC(=O)c1c2c(nc3ccccc13)-c1ccccc1CC2	?
Cc1ccc(N2C(=O)N(CC(=O)c3cc(C)ccc3C)C(=O)C2C)cc1 (stereo not given)	-2%
CC(=O)NC(CCS(C)(=O)=O)C(=O)Nc1ccc2c(c1)OCCO2 (stereo not given)	-6%
COC1=CC(=O)C[C@@H](C)[C@]12Oc1c(Cl)c(OC)cc(OC)c1C2=O	?
Cc1c(NC(=O)COc2ncnc3ccccc23)c(=O)n(-c2ccccc2)n1C	-4%
COc1nc2c(s1)C(=O)NCCC2	0%

Reprinted from the listing, 4 compounds:
SMILES	HPGD block
CC(=O)NC(CCS(C)(=O)=O)C(=O)Nc1ccc2c(c1)OCCO2 (stereo not given)	-6%
COC1=CC(=O)C[C@@H](C)[C@]12Oc1c(Cl)c(OC)cc(OC)c1C2=O	?
Cc1c(NC(=O)COc2ncnc3ccccc23)c(=O)n(-c2ccccc2)n1C	-4%
COc1nc2c(s1)C(=O)NCCC2	0%

Other results
SMILES	HPGD block
O=C(COc1ccccc1)NC1CCCCC1	-24%
c1ccc(CSc2nnc(SCc3ccccn3)s2)nc1	-4%
CCCNC(=O)c1cc(OC)c(OC)cc1[N+](=O)[O-]	-6%
O=C(N1CCN(c2ccc(F)cc2)CC1)C1(c2cccs2)CCOCC1	-7%
CC(=O)Oc1cccc(C)c1	-6%
CC1C(=O)C(C)C(c2cccs2)NC1c1cccs1 (stereo not given)	-22%
CCCCCCn1c(N2CCC(C(N)=O)CC2)nc2c1c(=O)[nH]c(=O)n2C	-8%
Cc1ccc2c(c1)C1NC(=S)NC(C)(O2)C1C(=O)Nc1ccc(Cl)cc1 (stereo not given)	-5%
CCOC(=O)CNC(=O)c1ccccc1Br	-27%
O=C(COC(=O)CCc1ccc(S(=O)(=O)N2CCCCC2)cc1)Nc1ccc2c(c1)OCO2	-7%
CCOC(=O)c1ccc(-n2c(C)nc3c(cnn3-c3ccc(Cl)cc3)c2=O)cc1	0%
COc1cc(/C=N/NC(=O)[C@H](Cc2c[nH]c3ccccc23)NC(=O)OCC(C)C)cc([N+](=O)[O-])c1O	-11%
CN(Cc1ccccc1)C(=O)c1oc(=O)c2ccccc2c1-c1ccccc1	-9%
CN1C(=O)N(C)C2(c3ccccc3)N(C(C)(C)C)C(=O)NC12c1ccccc1 (stereo not given)	-8%
N#Cc1cccc(-c2cc(NCc3cccs3)ncn2)c1	?
CC(=O)c1cc2c(cc1NC(=O)Nc1cccc(Cl)c1)OCCO2	?
CCOC(=O)c1sc(-c2ccc(OC)cc2)cc1NC(C)=O	?
COc1ccc(OC)c(NC(=O)CSc2ncccc2C(=O)O)c1	13µM*
c1ccc2sc(N3CCN(Cc4nnnn4CC4CCCO4)CC3)nc2c1 (stereo not given)	-5%
CC(C)(C)c1cc(CN2CCCC(O)C2)c(O)c(C(C)(C)C)c1 (stereo not given)	-21%
CCN1CNC(=S)N(CCc2ccccc2)C1	-6%
O=[N+]([O-])c1ccc(CSc2nc3ccccc3o2)cc1	-8%
O=C(NC1CCc2ccccc21)C12CN(Cc3ccccc3)CC1C(c1cccc([N+](=O)[O-])c1)=NO2 (stereo not given)	-22%
CC(=O)Nc1cc(CN2CCCCC2)c(O)c2ncccc12	-10%
COc1ccc(C)cc1NC(=O)c1ccccc1NS(=O)(=O)c1cccc2cccnc12	-4%

Grouped by structure: the compounds so far with two or more sulfur atoms
SMILES	HPGD block
O=C(CSc1ncc(C(F)(F)F)cc1Cl)N1CCN(S(=O)(=O)c2ccc(Cl)cc2)CC1	-24%
CCN1C(=O)/C(=C\N2CCN(c3cccc(Cl)c3)CC2)SC1=S	1%
c1ccc(CSc2nnc(SCc3ccccn3)s2)nc1	-4%
CC1C(=O)C(C)C(c2cccs2)NC1c1cccs1 (stereo not given)	-22%

Going on with the list:
SMILES	HPGD block
CC1CN(C(=O)C2CC2)C(C)CN1C(=O)C1CC1 (stereo not given)	-13%
CC(C)COC(=O)N(C)c1ccc(C(O)(C(F)(F)F)C(F)(F)F)cc1	-12%
O=C(c1ccccc1)N(Cc1cccs1)C1CCS(=O)(=O)C1 (stereo not given)	-1%
C/C(=N\NC(=S)NC(C)C)c1ccc(-n2ccnc2)cc1	1%
COc1ccc(CC(=O)NNC(=S)Nc2ccccc2)cc1Br	-25%
CCOC(=O)/C(C#N)=C\c1cc(C)n(-c2ccccc2)c1C	-15%
CC1=C(\C=C/C(C)=C/C=C\C(C)=C\C(=O)O)C(C)(C)CCC1	-7%&-12%&-5%&-11%
Cc1ccc(C2C3=C(CCCC3=O)N=C3c4ccccc4C(=O)C32)cc1 (stereo not given)	-7%
C=CCN(C(=O)CNC(=O)c1ccco1)C(C(=O)NC1CCCCC1)c1ccc(OC)cc1 (stereo not given)	-8%
CC(C)(C)CC(=O)Nc1ccc(C(N)=O)cc1	-8%
CCOC(=O)c1c(NC(=O)COc2cccc3c2CCN(C)C3=O)sc2c1CCC2	?
COCCNc1nc(SCC(=O)N2CCN(c3ccccc3)CC2)nc2ccccc12	-3%
Cc1noc(C)c1COC(=O)c1cccc(S(=O)(=O)N2CCCCCC2)c1	-2%
O=C(NCCCO)Nc1ccc2nc(-c3ccco3)c(-c3ccco3)nc2c1	?
Cc1cn([C@H]2C[C@H](N=[N+]=[N-])[C@@H](CO)O2)c(=O)[nH]c1=O	-2%&-2%
CC(C)Cn1ccc(=O)n(CC(C)C)c1=O	-11%
Cc1onc(-c2ccccc2)c1C(=O)N1CCN(S(=O)(=O)c2ccc3c(c2)OCCO3)CC1	-8%
CCNc1nc(Oc2ccc(=O)[nH]n2)nc(SC)n1	-9%
COc1ccccc1/C=N/NC1=NCCCCC1	?
Cn1cc(SCC(=O)NCC2CCCO2)c2ccccc21 (stereo not given)	28µM*
Clc1ccc(-n2nnnc2-c2ccccc2)cc1	-8%
Cc1cccc(NC(=O)C2CCN(S(=O)(=O)c3cccs3)CC2)c1	-11%
CN(C)S(=O)(=O)N1CCN(C(=O)N2CCOCC2)CC1	-8%
O=C(O)c1cc(-c2ccco2)nc2ccc(Br)cc12	?
COc1ccc(OC)c(C(=O)c2oc3ccccc3c2NC(C)=O)c1	-14%

Ordered by value in HPGD block (rising): three from the list above
SMILES	HPGD block
COc1ccc(CC(=O)NNC(=S)Nc2ccccc2)cc1Br	-25%
CC(C)COC(=O)N(C)c1ccc(C(O)(C(F)(F)F)C(F)(F)F)cc1	-12%
C=CCN(C(=O)CNC(=O)c1ccco1)C(C(=O)NC1CCCCC1)c1ccc(OC)cc1 (stereo not given)	-8%

Remaining list, next part
SMILES	HPGD block
O=C(N/N=C/c1cc2c3c(c1O)CCCN3CCC2)c1ccccc1O	-30%
C=CCn1c(CCNC(=O)C(C)(C)C)nc2ccccc21	-8%
O=C(Nc1nc2cc(Cl)ccc2s1)C1CCCN(S(=O)(=O)c2cccc3cccnc23)C1 (stereo not given)	-27%
CCN(CC)c1ccc(/C=N/Nc2nc(C)cc(=O)[nH]2)c(O)c1	-19%
Cc1c(NC(=O)c2cc3nc(-c4ccc(Br)cc4)cc(C(F)(F)F)n3n2)c(=O)n(-c2ccccc2)n1C	-16%
CC(C)C(=O)Nc1ccc(C(=O)c2ccccc2)cc1	14µM*
O=C(c1ccncc1)N1CCC2(CCCN(Cc3ccccc3)C2)CC1	-4%
CN(C)CCN1CC(C(=O)O)CC1=O (stereo not given)	-9%
Nc1cccc2c1C(=O)N(C(=O)c1ccc(Cl)c(S(=O)(=O)N3CCCCCC3)c1)C2=O	?
COc1ccc2c(c1OC)CN1CCc3cc4c(cc3[C@@H]1[C@@H]2O)OCO4	-8%
CC(=O)c1ccc(N2CCCCCC2)c(F)c1	-12%
CCOc1ccc(NC(=O)CCn2c(=O)[nH]c3ccsc3c2=O)cc1	-18%
COc1ccc(NC(=O)Nc2nc3c(s2)CCCC3)cc1	-2%
Cc1cc(C)cc(N/C(N)=N/c2nc(C)cc(C)n2)c1	-14%
COc1ccc(NC(=O)C23CC4CC(C2)CC(c2ccc(C)cc2)(C4)C3)cc1	-15%
CC(/C=C/c1ccco1)=N\NC(=O)c1cc(C)[nH]n1	-10%
CCCCn1c(N)c(-c2nc3ccccc3s2)c2c([N+](=O)[O-])nn(CC)c(=O)c21	3%
CCOC(=O)C1C(=O)OC2(CCCC2)C1C(=O)OCC (stereo not given)	1%
Cc1ccc2[nH]c(-c3ccccc3)c(CN3CCOCC3)c(=O)c2c1	2%
COc1ccc(NC(=O)CCc2nc(-c3ccc(C)cc3)no2)cc1Cl	-1%
COc1ccc2[nH]c3nc(SCc4nnc(-c5ccc(C)cc5)o4)nnc3c2c1	-4%
CCOC(=O)/C(C#N)=C1/C=CN(C)C(C)=N1	?
Cn1c(N)c(C(=O)COC(=O)C2(c3cccc(F)c3)CCCC2)c(=O)n(C)c1=O	-13%
Cc1ccc(-c2noc(CSc3nnc(-c4cccs4)n3C)n2)cc1	-11%
CNC(=O)COC(=O)c1ccc(NC(=O)CC#N)cc1	-12%
CC1(C)CC(=O)C2=C(C1)N(Cc1ccco1)C(=O)C2(NC(=O)c1cccnc1)C(F)(F)F (stereo not given)	-7%
COc1cc(C(=O)OCc2ccc(C)cc2)cc(NC(=O)c2cccs2)c1OC	?

Some of the compounds tested (hit frequency here may not be typical).
